TRPV1 potentiator: HTS Assay for Compounds that Act as Potentiators of the Vanilloid Receptor 1; Transient receptor potential cation channel subfamily V member 1 (Homo sapiens), Q8NER1; TRPV1-expressing cells, Fluo-8 calcium influx, capsaicin EC20 potentiation; host cell line not named in the record; control for the full effect not named in the record; potentiation, % at 8.33 µM; actives 0.02% (n = 320,000); AID 540277, 2011; active means potentiation above 80%; inconclusive means 30% to 80%; inactive means below 30%; note: 0% is about no effect
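Cells expressing TRPV1 were dye-loaded with Fluo-8 and read kinetically: 10 s baseline, 3 min after compound (agonist portion), then 2 min after EC20 capsaicin (allosteric enhancer portion). Calcium-bound dye fluorescence at 480/520 nm.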
D2 agonist: Beta-Arrestin HTS for Positive Allosteric Modulators of the Human D2 Dopamine Receptor: Agonists | AID 624465, 2012 | D(2) dopamine receptor (Homo sapiens), P14416 | DiscoveRx PathHunter D2 beta-arrestin, luminescence, 90 min; 100% = 57 uM dopamine signal | activation, % (no concentration beside the values) | actives 0.084% (n = 360,000); in the data active = activation above about 40%; inconclusive = about 15% to 40%; inactive = below about 15%; note: compound concentration not given in the record; the text of the record calls up to 30% inactive
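Agonist mode: compounds alone added to overnight-plated D2 PathHunter cells for 90 min at 37 C, with 57 uM final dopamine (EC100) defining full response. Beta-arrestin recruitment detected by chemiluminescent reagent, read after 1 h at ambient temperature.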
Six1-Eya2 inh: qHTS Assay for Inhibitors of the Six1/Eya2 Interaction; actives 0.56% (n = 360,000); activity change, % (concentration not given with the values); AlphaScreen GST-Six1/His-Eya2 binding, biochemical; hits give low values; control for the full effect not named in the record; AID 651725, 2012; in the data active = activity change below about -65%; inconclusive = about -30% to -65%; inactive = above about -30%; note: % is set by controls: 0 for no effect and ±100 for the full control effect
Target sequence (O00167 whole entry, looked up): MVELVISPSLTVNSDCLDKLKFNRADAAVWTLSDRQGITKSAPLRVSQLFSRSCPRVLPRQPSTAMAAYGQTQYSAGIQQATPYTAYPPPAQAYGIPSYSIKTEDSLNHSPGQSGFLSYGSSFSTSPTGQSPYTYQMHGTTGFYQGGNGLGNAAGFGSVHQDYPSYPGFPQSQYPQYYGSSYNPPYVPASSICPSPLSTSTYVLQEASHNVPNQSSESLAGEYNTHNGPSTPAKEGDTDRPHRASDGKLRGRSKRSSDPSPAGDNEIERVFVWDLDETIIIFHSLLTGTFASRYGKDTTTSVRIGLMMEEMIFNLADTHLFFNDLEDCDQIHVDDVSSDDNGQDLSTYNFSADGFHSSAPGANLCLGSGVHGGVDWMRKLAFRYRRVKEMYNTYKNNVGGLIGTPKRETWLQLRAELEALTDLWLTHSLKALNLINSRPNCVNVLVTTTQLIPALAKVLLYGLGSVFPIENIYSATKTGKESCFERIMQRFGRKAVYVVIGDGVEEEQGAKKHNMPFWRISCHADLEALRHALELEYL
Target sequence (Q15475 whole entry, looked up): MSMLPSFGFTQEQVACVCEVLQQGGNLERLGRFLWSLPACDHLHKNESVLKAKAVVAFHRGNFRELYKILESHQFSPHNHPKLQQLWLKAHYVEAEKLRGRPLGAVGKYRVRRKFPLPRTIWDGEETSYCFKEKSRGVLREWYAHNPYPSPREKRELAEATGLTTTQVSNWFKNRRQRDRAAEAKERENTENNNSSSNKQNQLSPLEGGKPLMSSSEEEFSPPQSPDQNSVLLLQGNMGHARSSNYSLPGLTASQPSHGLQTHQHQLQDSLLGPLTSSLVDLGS
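Six1/Eya2 binding was read as AlphaScreen signal after compounds were pinned into GST-Six1 plus His-tagged Eya2 (5X stock 250/500 nM) in pH 8.0 Tris/NaCl/TCEP buffer, beads added, then incubated 1 h, 37 C, dark.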
Sfp PPTase inh: qHTS Assay for Inhibitors of Bacillus subtilis Sfp phosphopantetheinyl transferase (PPTase); 4'-phosphopantetheinyl transferase ffp (Bacillus subtilis), Q9F4F7; Potency, µM, for the others: max response, negative = inhibition, usual class: inhibitors; AID 1490, 2009; Biochemical Sfp PPTase activity, qHTS; actives 3.5% (n = 310,000); active = well fitted inhibition curve with a large enough effect; inconclusive = small, poorly fitted or top-dose-only effect, or another doubt; inactive = no such curve, though single readings can be large or run the other way;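 note: the enzyme is Sfp with the accession as filed and its product quenches rhodamine fluorescence; potency is the fitted concentration of half-maximal effect; 0% = enzyme reaction without inhibitor and -100% = no enzyme wells; top concentration of the series not given in the record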
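Fluorescence-quenching assay: 15 nM Sfp-PPTase preincubated 15 min at room temperature with compound, then 5 uM rhodamine-CoA and 12.5 uM BHQ-2-labelled YbbR peptide added. Fluorescence (ex 525/em 598 nm) read at start and after 30 min; difference gives rate.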
CtBP-E1A blk: qHTS Assay for Inhibitors of the CtBP/E1A Interaction. CtBP / adenovirus E1A interaction (AlphaScreen). AlphaScreen GST-E1A/His-CtBP binding, 1536-well; hits give low values; control for the full effect not named in the record. activity change, % (test concentration not listed). actives 0.49% (n = 340,000). AID 651724, 2012; in the data active means activity change below about -65%; inconclusive means about -30% to -65%; inactive means above about -30%; note: % is set by controls: 0 for no effect and ±100 for the full control effect; compound concentration not given in the record
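GST-E1A and His-tagged CtBP (125 nM each as 5X stock) were preincubated with pin-transferred compound for 2 h at 37 °C in the dark, then glutathione donor and nickel acceptor beads were added for 1 h before AlphaScreen reading.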
D2 PAM: Beta-Arrestin HTS for Positive Allosteric Modulators of the Human D2 Dopamine Receptor: Potentiators. D(2) dopamine receptor (Homo sapiens), P14416. DiscoveRx D2 beta-arrestin cells, luminescence, 90 min; 100% = 57 uM dopamine signal. potentiation, % (concentration not given with the values). actives 0.23% (n = 360,000). AID 624464, 2012; active = potentiation of 50% or more; inconclusive = 30% to 50%; inactive = 30% or less;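 note: compound concentration not given in the record; tested on top of an EC20 dose of dopamine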
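D2 cells co-treated with compound plus 50 nM dopamine (EC20) for 90 min at 37 deg C to detect potentiation. Beta-arrestin recruitment was read as enzyme-fragment luminescence after 1 h at ambient temperature. Full response was set by 57 uM dopamine.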
PINK1 expr mod: A Quantitative High throughput Screen to Identify Chemical Modulators of PINK1 Expression. PINK1 immunofluorescence, high-content cytometry, 24 h. Potency, µM (top dose mostly 76.6 µM), inactives show at the top dose activation (PINK1 increase), most hits filed as activators. actives 0.2% (n = 410,000). AID 624263, 2012; active = well fitted activation curve with a large enough effect; inconclusive = small, poorly fitted or top-dose-only effect; inactive = flat fitted curve, though single readings scatter; cell line not stated here;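 note: potency is the fitted concentration of half-maximal effect; % of control where 0% means no effect; nearly all actives have a fitted effect of over 65% in size; a mitochondrial uncoupler was the plate control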
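A stable cell line was treated with compounds at 5 concentrations for 24 hours, with CCCP as control. PINK1 levels and mitochondrial localization were measured by immunofluorescence with mitochondrial, cell and nuclear markers after fixation, read by laser-scanning cytometry.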
* = called active by the depositor; ? = inconclusive; . = not tested or not shown; & = joins results of further samples; [ ] = another dose, or the depositor's remark.

SMILES | TRPV1 potentiator | D2 agonist | Six1-Eya2 inh | Sfp PPTase inh | CtBP-E1A blk | D2 PAM | PINK1 expr mod
CN(C)CCCCOc1ccc(F)cc1 | 5 | -1.6 | 4 | -2% | -5 | -11 | -0.5%
COc1ccc(-c2csc3nc(C)nc(N4CCCCC4)c23)cc1OC | -27 | -3.8 | 14 | 9% | 0 | 3 | 5.9%
CCOC(=O)C(C)Sc1ncc(-c2ccc(Cl)cc2)cn1 (stereo not given) | -10 | 0.4 | 11 | -4% | 19 | 0 | 1.1%[38.3 µM]
C/C(=N\NS(=O)(=O)c1ccccc1)c1cc(Cl)cc(Cl)c1O | ? | 0.3 | -11 | 13% | 0 | -1 | ?
Cc1ccc2nc(Nc3nc(C)cc(-c4ccccc4)n3)[nH]c(=O)c2c1 | -5 | 0.7 | -4 | 11% | 0 | -5 | 6.2%
CC(OC(=O)c1ccc(NC(=O)CC#N)cc1)C(=O)Nc1nc(-c2ccccc2)cs1 (stereo not given) | 18 | -1.0 | -10 | . | -11 | -1 | 0.1%
COc1cccc(NC(=O)C2C3CCC4C(CCC32)C4(Cl)Cl)c1 (stereo not given) | -10 | -3.2 | 3 | -12% | -3 | -8 | 13%
Nc1nnc(Cc2c[nH]c3ccccc23)s1 | 1 | 2.7 | 2 | 4% | 6 | 7 | -0.1%
N#CC12COC3(CCCCC3C1(C#N)C#N)OC2=N (stereo not given) | 1 | -0.5 | -17 | 8% | -21 | -3 | 2.4%
CCC(=O)Nc1cc(-c2nn(C)c(=O)c3ccccc23)ccc1OC | 1 | -4.6 | 0 | 18% | 3 | -12 | 1.8%[38.3 µM]

Continued; the last three above are carried over.
SMILES | TRPV1 potentiator | D2 agonist | Six1-Eya2 inh | Sfp PPTase inh | CtBP-E1A blk | D2 PAM | PINK1 expr mod
Nc1nnc(Cc2c[nH]c3ccccc23)s1 | 1 | 2.7 | 2 | 4% | 6 | 7 | -0.1%
N#CC12COC3(CCCCC3C1(C#N)C#N)OC2=N (stereo not given) | 1 | -0.5 | -17 | 8% | -21 | -3 | 2.4%
CCC(=O)Nc1cc(-c2nn(C)c(=O)c3ccccc23)ccc1OC | 1 | -4.6 | 0 | 18% | 3 | -12 | 1.8%[38.3 µM]
COc1ccc(C2=NN(c3ccc(C(=O)O)cc3)C(c3ccc(OC)c(OC)c3)C2)cc1 (stereo not given) | 3 | -2.4 | 4 | -6% | 7 | -2 | -1.8%
Cc1ccnc(NC(=O)c2ccc(S(=O)(=O)N3CCCC3)cc2)c1 | -12 | -3.9 | 1 | . | 4 | 16 | -0.1%
CC(C)Cn1c(N)c(C(=O)CSc2nc3ncc(Cl)cc3[nH]2)c(=O)n(C)c1=O | 15 | -1.4 | 6 | . | -4 | -27 | 4.2%
COc1cc(NC(=O)c2ccc(C)cc2)ccc1NC(=O)c1cc2ccccc2o1 | -19 | -0.4 | 1 | -16% | 4 | -8 | 2.0%&-0.3%
Cc1cnc(N)c2c(=O)oc3ccccc3c12 | 10 | -5.9 | -4 | 2% | -2 | -7 | 1.7%
CN(CC(=O)Nc1c(Cl)cccc1Cl)C(=O)c1cccc(-n2cccc2)c1 | ? | 3.0 | -29 | . | -10 | 1 | 3.4%
O=C1CC(=O)Nc2cc(S(=O)(=O)N3CCOc4ccc(Cl)cc43)ccc2N1 | -28 | 1.4 | 8 | 16% | -2 | -2 | 0.9%&-1.1%
O=C(Cn1c(=O)n(Cc2ccco2)c(=O)c2c3c(sc21)CCCCC3)Nc1ccccc1 | 23 | -4.1 | -10 | -103% | -9 | -12 | ?
O=C(NCc1ccc(Cl)cc1)c1cccnc1 | -7 | -1.7 | 7 | -2% | -7 | -4 | 0.3%
Cc1cc(Br)ccc1NC(=O)CN(C)C(=O)c1cc(S(=O)(=O)N(C)C)ccc1N1CCCC1 | 2 | -1.2 | -1 | 3% | -4 | -22 | 2.4%
CN(C)C(=O)N1CCCC(C(=O)NCc2cccs2)C1 (stereo not given) | -6 | -1.2 | 3 | 25% | 6 | -8 | 1.8%[38.3 µM]
COc1ccc(-c2ccc(C(=O)C3CC3)cc2)cc1 | 18 | 3.6 | 7 | 2% | 3 | 4 | 2.3%
COc1ccc(CC(NC(C)=O)C(=O)NC2CCN(C(=O)c3cnccn3)CC2)cc1 (stereo not given) | 0 | -0.4 | 4 | 16% | 5 | 4 | 2.1%
N#CC(c1cccc(Cl)c1)c1ccc2c(C(F)(F)F)cc(C(F)(F)F)nc2n1 (stereo not given) | 11 | -0.7 | ? | -2% | ? | -5 | ?
O=C(NCCCc1ccccc1)c1cnc2n(c1=O)CCS2 | -38 | -0.8 | -1 | -8% | -11 | 1 | 0.1%[38.3 µM]
CC(C)OC(=O)CCCCCN1C(=O)CSC1=S | 4 | -7.2 | 3 | -2% | 0 | -9 | 0.1%
CC(/C=C/c1ccccc1)=N\Nc1nc(C)cc(C)n1 | -5 | 0.0 | -1 | 4% | 9 | -7 | 0.3%
Cc1ccccc1-n1c(SCC(=O)N2CCCC2)nnc1-c1ccccn1 | -10 | -0.4 | -14 | ? | -8 | 2 | -0.8%
CCOC(=O)Cc1csc(SC(C)C(=O)NCC(=O)Nc2ccc(F)c(F)c2F)n1 (stereo not given) | -8 | -1.6 | 5 | 12% | 0 | -1 | 3.2%
CC(OC(=O)c1ccc([N+](=O)[O-])o1)C(=O)NC1CCCCC1C (stereo not given) | 2 | 2.8 | -1 | . | -19 | 3 | 0.9%
CN(C(=O)c1ccc(NC(=O)Cc2ccc(NC(=O)C3CCN(C(=O)CCc4ccccc4)CC3)cc2)cc1)C1CCCC1 | . | 2.2 | 0 | . | 3 | 1 | 4.0%
CN(C)CCCNC(=S)NCC(c1ccc(Cl)cc1Cl)c1c[nH]c2ccccc12 (stereo not given) | 10 | -6.6 | 12 | 50µM* | -18 | -3 | -0.8%
O=C(Nc1nnc(C2CC2)s1)c1cccs1 | 7 | -2.8 | 0 | 8% | -2 | -8 | 3.8%
CC(=O)CSc1nnc2cc(C)c3ccccc3n12 | -6 | -1.0 | -2 | -1% | 3 | -8 | 0.2%
COc1ccc(OC)c(CN2CCN(Cc3cc(OC)c(OC)c(OC)c3)CC2)c1 | 6 | -1.6 | -8 | -16% | 8 | -6 | 0.2%
O=C(O)c1cccc(NC(=S)NC(=O)c2ccc(-c3ccccc3)cc2)c1 | 3 | 5.6 | 1 | -4% | 2 | 0 | 0.7%
Cc1ccc(Nc2nc(N)c(C#N)c(CC#N)c2C#N)cc1 | 24 | -1.2 | -2 | 17% | -9 | 0 | 4.5%
N/C(=N\OC(=O)/C=C/c1ccccc1)c1ccccc1 | -3 | 3.9 | 33 | -10% | 42 | ? | 2.1%[38.3 µM]
Cc1cccc(N2CCN(c3nc4ccccc4n4cnnc34)CC2)c1C | . | -1.4 | -11 | ? | -10 | -4 | 2.2%
COc1ccc(N2CCN(C(=O)CCCCn3c(=O)[nH]c4ccsc4c3=O)CC2)cc1 | -3 | 1.2 | -5 | 19% | 4 | 0 | 0.5%&0.2%
COc1ccc(OC)c(S(=O)(=O)N2CCN(c3ncccn3)CC2)c1 | 27 | -0.6 | 2 | -4% | . | -10 | 0.6%
Cc1nnsc1C(=O)Nc1ccc(S(=O)(=O)N2CCCC(C)C2)cc1 (stereo not given) | -22 | 2.9 | -3 | 7% | -13 | -11 | 3.2%
CC(=O)NCCc1ccc(-c2csc(NC(=O)C3CC(=O)N(C4CCCC4)C3)n2)cc1 (stereo not given) | 5 | -2.8 | -3 | . | -26 | 16 | 2.2%
COc1ccccc1N1CCN(C(=O)COc2ccc(Cl)cc2Br)CC1 | ? | 2.7 | -1 | -20% | -1 | -9 | 2.5%
COc1ccc(N(C(=O)c2ccco2)C(C(=O)NC2CCCC2)c2cc(OC)c(OC)c(OC)c2)cc1 (stereo not given) | 3 | -1.4 | 0 | 24% | 5 | -6 | 2.3%
CCn1c(=O)c2ccccc2n2c(SCC(=O)N3CCc4ccccc4C3)nnc12 | -5 | 1.0 | -1 | 8% | -12 | -1 | 0.5%[38.3 µM]
CN(C)CCCNC(=O)CCC1CCCCC1 | 8 | -3.0 | -9 | 1% | -1 | -31 | -2.2%
Cc1ccc(S(=O)(=O)Nc2cccc(C(=O)NCC3CCCO3)c2)cc1F (stereo not given) | 8 | -2.8 | 6 | . | 2 | -14 | -0.5%
CCOC(=O)c1sc2ncnc(N3CCN(c4ccc(OC)cc4)CC3)c2c1C | 3 | -0.6 | 0 | ? | 8 | -1 | -6.1%[38.3 µM]
CCOC(=O)N1CCN(C(c2ccccc2)c2sc3nc(C)nn3c2O)CC1 (stereo not given) | -3 | -0.7 | -2 | 27% | 8 | -1 | -1.8%[38.3 µM]
C[C@@H]1CN([C@H](C)CO)C(=O)CCCn2nncc2CO[C@H]1CN(C)C(=O)Nc1ccnc(N2CCOCC2)c1 | . | -9.6 | 6 | . | 5 | 1 | -0.4%
O=S(=O)(Nc1ccc(Cc2ccncc2)cc1)c1ccc(Cl)c(Cl)c1 | 3 | 3.5 | -6 | -5% | -2 | -8 | -5.2%[38.3 µM]
COc1cc(Br)c(C2CC(=O)Nc3cc(OC)c(OC)cc32)cc1OC (stereo not given) | 2 | -3.8 | -9 | -3% | 2 | -2 | 3.5%
Cc1cc(C(F)(F)F)c(C#N)c(SCC(=O)NC2CC2)n1 | 0 | 1.7 | 2 | 13% | 3 | 0 | 16%[38.3 µM]
COC(=O)c1ccc(CC(=O)c2c(C)cc(O)cc2O)o1 | -4 | 3.7 | 3 | 40µM* | 0 | ? | -3.7%
CCCc1cc2nnc(SCC(=O)N(C)C3CCCCC3)n2c(N)n1 | 15 | -5.5 | 6 | 7% | -12 | -11 | 3.7%
